# Source: PubChem BioAssay (National Center for Advancing Translational Sciences (NCATS))
# PINK1 expr mod – A Quantitative High throughput Screen to Identify Chemical Modulators of PINK1 Expression; PINK1 immunofluorescence, high-content cytometry, 24 h; Potency, µM (doses to about 76.6 µM), for the others: at the top dose activation (PINK1 increase), usual class: activators; 0.2% of 410,000 active; active = well fitted activation curve with a large enough effect; inconclusive = small, poorly fitted or top-dose-only effect; inactive = flat fitted curve, though single readings scatter; cell line not stated here;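 also: potency is read from the fitted curve at half-maximal effect; % of control where 0% means no effect; nearly all actives have a fitted effect of over 65% in size; a mitochondrial uncoupler was the plate control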
#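 Cells are seeded, rested 12 hours, then given compound at five concentrations or DMSO for 24 hours. After fixation, blocking and antibody staining, PINK1 amount and mitochondrial localization are scored; CCCP serves as control.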
# TRPV1 potentiator – HTS Assay for Compounds that Act as Potentiators of the Vanilloid Receptor 1 | Transient receptor potential cation channel subfamily V member 1 (Homo sapiens), Q8NER1 | TRPV1-expressing cells, Fluo-8 calcium influx, capsaicin EC20 potentiation; host cell line not named in the record; control for the full effect not named in the record | potentiation, % at 8.33 µM | 0.02% of 320,000 active; active means potentiation above 80%; inconclusive means 30% to 80%; inactive means below 30%; also: 0% is about no effect
#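 Fluo-8 calcium influx in TRPV1-expressing cells, kinetic read (ex 480/em 520 nm). Compound added and read 3 min for agonist activity, followed by capsaicin at EC20 final and 2 min further read for enhancement.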
# ClpP mod – qHTS Assay for Activators of ClpP. purified B. subtilis ClpP, FRET peptide cleavage, 20 min. ATP-dependent Clp protease proteolytic subunit (Bacillus subtilis (strain 168)), P80244. AID 651965, 2013. 1.9% of 340,000 active. Potency, µM (series often up to 57.5 µM), without a hit: at the highest dose activity change, negative = active; active = well fitted falling curve with a large enough effect; inconclusive = small, poorly fitted or top-dose-only effect; inactive = no such curve, though single readings can be large or run the other way; also: potency is read from the fitted curve at half-maximal effect; the source files actives as falling curves though it sought activators and does not explain the sign; nearly all actives have a fitted effect of over 65% in size; many hits overshoot -100%
# Target sequence (P80244 whole entry, looked up): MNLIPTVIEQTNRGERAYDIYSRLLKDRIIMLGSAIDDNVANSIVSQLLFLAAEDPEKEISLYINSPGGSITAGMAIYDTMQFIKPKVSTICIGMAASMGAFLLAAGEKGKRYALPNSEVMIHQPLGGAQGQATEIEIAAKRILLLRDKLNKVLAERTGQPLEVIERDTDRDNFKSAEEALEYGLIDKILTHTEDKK
#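 FRET quenching reversal measured ClpP activation: 10 microg/mL B. subtilis ClpP at pH 8 with the FRET-FV decapeptide, read at 430 nm after 320 nm excitation. The 20-min minus 0-min signal was scaled between DMSO/no-enzyme wells and ADEP (5.8 microM final).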
# TRPML1 inh – qHTS for Inhibitors of the Human Mucolipin Transient Receptor Potential 1 (TRPML1); Mucolipin-1 (Homo sapiens), Q9GZU1; 0.02% of 390,000 active; TRPML1-inducible cells, Ca2+ dye fluorescence, FDSS; hits give low values; inhibition of EC80 agonist-evoked calcium signal; activity change, negative = inhibition, % (concentration not given with the values); in the data active means activity change below about -50%; inconclusive means about -30% to -50%; inactive means above about -30%;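 also: stimulus is agonist 54-4 at its EC80 concentration; % is scaled to controls: 0 for no effect and ±100 for the full control effect; compound concentration not given in the record; the text of the record puts the active cut at -80%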
# Target sequence (Q9GZU1 whole entry, looked up): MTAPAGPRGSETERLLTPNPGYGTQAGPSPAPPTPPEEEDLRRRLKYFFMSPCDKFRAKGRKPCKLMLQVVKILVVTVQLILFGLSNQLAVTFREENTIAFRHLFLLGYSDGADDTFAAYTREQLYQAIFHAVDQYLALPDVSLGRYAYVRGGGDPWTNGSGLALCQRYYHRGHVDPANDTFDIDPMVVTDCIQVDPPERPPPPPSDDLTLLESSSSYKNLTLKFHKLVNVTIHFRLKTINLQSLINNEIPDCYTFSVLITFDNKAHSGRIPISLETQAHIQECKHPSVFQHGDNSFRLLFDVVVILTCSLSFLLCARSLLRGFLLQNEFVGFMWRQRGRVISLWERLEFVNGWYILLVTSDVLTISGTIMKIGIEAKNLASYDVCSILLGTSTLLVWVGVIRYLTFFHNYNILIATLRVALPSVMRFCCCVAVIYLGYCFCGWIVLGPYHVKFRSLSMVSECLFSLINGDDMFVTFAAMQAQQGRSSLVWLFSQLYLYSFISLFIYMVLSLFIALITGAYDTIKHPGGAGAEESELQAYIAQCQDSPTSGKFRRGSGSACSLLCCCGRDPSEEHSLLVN
#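 Calcium fluorescence in TRPML1-DL cells induced overnight with Tet: a 110 s read after compound pin addition, then a 110 s antagonist read after challenge with 54-4 at 4 uM final (EC80).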
# TRPML1 ag – qHTS for Agonists of the Human Mucolipin Transient Receptor Potential 1 (TRPML1). TRPML1-expressing cells, Ca2+ dye fluorescence, FDSS; host cell line not named in the record; reference of the full effect not given here. activation, % (concentration not given with the values). 0.12% of 410,000 active. AID 624414, 2012; in the data active = activation above about 50%; inconclusive = about 30% to 50%; inactive = below about 30%; also: 0% is about no effect; the text of the record puts the active cut at 80%
#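 Kinetic FDSS Ca2+ read in Tet-induced TRPML1-DL cells (ABD Ca8 dye plus quencher, 45-90 min RT loading): baseline, then compound, then 110 s agonist window; EC80 agonist 54-4 at 4uM final added afterwards for a 110 s antagonist window.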
# Sfp PPTase inh – qHTS Assay for Inhibitors of Bacillus subtilis Sfp phosphopantetheinyl transferase (PPTase); Biochemical Sfp PPTase activity, qHTS; Potency, µM, inactives show max response, negative = inhibition, actives largely listed as inhibitors; 3.5% of 310,000 active; AID 1490, 2009; active = well fitted inhibition curve with a large enough effect; inconclusive = small, poorly fitted or top-dose-only effect, or another doubt; inactive = no such curve, though single readings can be large or run the other way;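 also: the enzyme is Sfp with the accession as filed and its product quenches rhodamine fluorescence; potency is read from the fitted curve at half-maximal effect; 0% = enzyme reaction without inhibitor and -100% = no enzyme wells; top concentration of the series not given in the record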
#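 With Hepes-Na pH 7.6 buffer containing 10 mM MgCl2, Sfp (15 nM) modified BHQ-2-YbbR (12.5 uM) using rhodamine-CoA (5 uM). Two reads 30 minutes apart at 525/598 nm yielded each well's rate.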
# Menin MLL FP FL – qHTS Assay for Inhibitors Targeting the Menin-MLL Interaction in MLL Related Leukemias: Competition With Fluorescein Labeled MLL-derived Peptide; Fluorescence polarization, fluorescein-MLL peptide displacement from menin; FP activity change, % at 61.4 µM; 290,000 tested, under 10 active; AID 1766, 2009; inconclusive = falling polarisation curve, or a change in total fluorescence; inactive = total fluorescence flat and polarisation flat or rising; no compound was filed as active; the % refers to the polarisation; negative = inhibition;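 also: % of control where 0% means no effect; inhibitors lower the polarisation; unlabelled MLL peptide was the positive control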
# Numbers without * were called inactive; ? = inconclusive; . = not tested or not shown; [ ] = dose if it differs, or a comment.
Molecule	PINK1 expr mod	TRPV1 potentiator	ClpP mod	TRPML1 inh	TRPML1 ag	Sfp PPTase inh	Menin MLL FP FL
CCC1(C)CC(CCN(Cc2ccco2)C(C)=O)(c2ccccc2)CCO1 (configuration not stated)	0.4%	-11.6	-0.6%	63.9	2.1	10.9%	2.6
Fc1cccc(CSc2nc3ncc(Cl)cc3[nH]2)c1	5.6%	15.4	.	16.0	1.6	9.7%	-4.0
CCN(CC)S(=O)(=O)c1cc(NC(=O)Cn2ncc(Cl)c(Cl)c2=O)ccc1C	-1.4%	12.0	0.1%	.	.	4.1%	-1.3
CC(C)(C)N(NC(=O)Nc1ccc(Cl)c(Cl)c1)C(=O)c1ccccc1	?	7.4	-0.2%	-19.4	2.1	-0.6%	7.7
Cc1nc(N)nc(Cl)c1CCC1OCCO1	-0.3%	.	.	2.9	0.2	.	.
COc1ccc(S(=O)(=O)N(C)C)cc1NS(=O)(=O)c1ccc(F)c(F)c1F	-0.7%	15.4	1.3%	-1.3	-0.6	7.2%	2.1
CCN(CC)S(=O)(=O)c1ccc(C(=O)NCCc2cc3c(OC)ccc(OC)c3[nH]c2=O)cc1	1.7%	1.2	-2.3%	2.2	-0.5	6.0%	1.4
O=C(C[n+]1cccc(CNC(=O)c2ccc(OC(F)F)cc2)c1)Nc1cccc(C(F)(F)F)c1	2.6%	6.0	1.4%	-9.0	0.1	-19.0%	-4.0
CC(=O)c1ccc(N2C(=O)CC(N3CCN(S(=O)(=O)c4ccc(C)c(C)c4)CC3)C2=O)cc1 (configuration not stated)	3.2%	.	0.7%	-11.2	0.2	.	.
COc1ccc(C(=O)n2cnc3ccccc32)cc1	-0.1%	11.1	0.5%	4.2	0.5	6.1%	-2.2
Cc1cccc2sc(NC(=O)C3CCN(C(=O)c4ccco4)CC3)nc12	2.6%	4.3	.	4.6	2.0	3.5%	10.2
O=C(COC(=O)Cc1ccc(Cl)cc1Cl)Nc1ccccc1OC(F)F	?	-2.2	0.7%	16.7	0.8	7.5%	3.1
COC(=O)c1ccc(/C=C(/NC(=O)c2ccccc2)C(=O)N2CCOCC2)cc1	0.1%	11.6	0.6%	31.0	-0.3	6.1%	2.7
COC1=C(Nc2ccc(C)cc2)C(=O)c2ccccc2C1=O	2.0%	23.5	3.5%	7.7	0.5	-26.0%	2.7
COc1ccc(S(=O)(=O)c2c(Nc3c(C)cccc3C)sc(C(=O)c3ccc(F)cc3)c2N)cc1	0.9%	.	-23.1%	21.6	6.4	.	.
CCN(C(=O)c1cc2c(s1)-c1ccccc1OC2)c1cccc(C(F)(F)F)c1	2.2%	.	3.5%	-11.4	2.5	.	.
CCOc1ccc(N2C(=O)CC(NC3CCN(C(=O)c4cccs4)CC3)C2=O)cc1 (configuration not stated)	0.2%	2.4	0.8%	-14.1	-0.1	3.9%	6.5
CCOC(=O)C(C(=O)Nc1cccc(C)c1)C1CCCCC1 (configuration not stated)	-1.3%[38.3 µM]	-7.8	0.2%	-6.3	-0.4	-7.8%	1.2
COc1ccccc1NC(=O)C1=C(C)NC(SCC(=O)c2ccccc2)=C(C#N)C1c1ccco1 (configuration not stated)	0.9%	23.1	-1.7%	1.2	1.2	?	15.8
O=C(Cn1nc(Cc2cccnc2)c2ccccc2c1=O)Nc1cc(F)ccc1F	0.1%	?	-0.3%	8.5	1.7	?	7.1
Cc1cc(=O)n(C)c(=O)n1CCCNc1ccccc1	.	6.2	-0.7%	-2.7	-0.5	?	-0.4
Cc1ccc(Nc2nc(=O)[nH]nc2C)cc1	5.3%[38.3 µM]	-0.5	-1.5%	-1.5	0.1	5.4%	6.4
Cc1ccc(CN2CC(C(=O)NCCC3=CCCCC3)CC2=O)cc1 (configuration not stated)	-0.7%	5.0	-1.0%	2.6	-0.2	.	.
CCCOc1ccc(N/C=C/C(=O)C(C)(C)C)cc1	-0.5%	-3.2	-3.7%	-25.8	-0.3	-0.9%	0.2
CCN(CC)S(=O)(=O)c1ccc(N2C(=O)Nc3ccccc3N2O)cc1	-0.1%	8.8	-0.7%	21.0	0.2	16.0%	-0.8
C/C(=N\NC(=O)c1nc2ccccn2c1C)c1ccco1	0.6%	4.8	-0.1%	-4.3	-1.1	19.2%	-8.2
C#CCOc1c(Br)cc(/C=C2/C(=O)ON=C2C)cc1OCC	-1.5%	11.2	2.0%	-7.7	1.3	-68.1%	-15.1
Cc1cc(C)cc(OCC(=O)Nc2ccc(S(=O)(=O)Nc3onc(C)c3C)cc2)c1	2.7%	.	-2.2%	-3.8	2.9	.	.
CC(C)(C)c1ccc(/C=C2\SC(=O)N(CCNC(=O)c3cccc(S(=O)(=O)N4CCOCC4)c3)C2=O)cc1	7.9%	?	1.9%	-1.4	0.2	-10.7%	5.6
CCCCCCCCn1c2c(c(=N)c3ccccc31)CCC2	12.6µM*	-10.3	.	11.4	-0.8	13.1%	-2.4
CCOC(=O)C1=C(C)N(CCCC(=O)O)C(=O)NC1c1ccc(Cl)cc1Cl (configuration not stated)	0.5%	22.4	1.9%	4.0	-0.5	-6.9%	-1.6
Cc1nn(C(=O)CCC(=O)NCc2ccccc2Cl)c2ccccc12	-0.7%	-1.0	3.0%	-15.2	-0.7	-4.9%	.
COc1ccc(S(=O)(=O)N2CCCCC2)cc1N(C)S(=O)(=O)c1ccccc1	1.2%	-14.7	-4.1%	30.4	1.7	7.4%	-1.2
Cc1ccc(S(=O)(=O)NCCN(CCNS(=O)(=O)c2ccc(C)cc2)S(C)(=O)=O)cc1	1.4%	-3.5	-0.4%	-11.2	-1.1	13.2%	0.3
COc1ccccc1NC(=O)CN(Cc1ccco1)C(=O)c1cncc(Br)c1	-0.6%	10.9	0.8%	2.0	-0.8	-8.4%	?
COC(=O)N/N=C(\C)c1ccc(C)c([N+](=O)[O-])c1	-0.5%	2.1	-2.5%	9.2	-0.4	-6.5%	1.9
CCCCCCOc1ccc(N2C(=O)CC(N3CCN(C(=O)c4ccco4)CC3)C2=O)cc1 (configuration not stated)	2.6%	-16.4	0.0%	0.4	-0.2	-1.5%	-0.9
COc1ccc(CCNC(=O)Cn2cc(S(=O)(=O)Cc3cccc(Cl)c3)c3ccccc32)cc1OC	-1.8%	.	1.5%	24.0	2.0	.	.
COc1cccc(NC(=O)CCN2C(=O)C3CC=CCC3C2=O)c1 (configuration not stated)	-0.6%	3.3	-1.7%	27.2	0.3	6.0%	.
C[C@H](N=C1NS(=O)(=O)c2ccccc21)C(=O)OCc1cc([N+](=O)[O-])cc2c1OCOC2	0.9%	2.1	.	15.9	0.1	2.9%	4.6
Cc1nnc(NC(=O)CCC(=O)N2CCN(S(=O)(=O)c3cc([N+](=O)[O-])ccc3C)CC2)s1	-1.2%	.	-0.2%	9.7	-0.4	.	.
C=CCOc1cccc(/C=N/NC(=O)CN(c2cc(Cl)ccc2OC)S(=O)(=O)c2ccc(C)c([N+](=O)[O-])c2)c1	?	-10.5	1.6%	-13.2	0.5	10.4%	1.1
COc1cc(/C=N\n2cnnc2)ccc1OCC(=O)Nc1ccc(C)cc1	-0.2%	2.1	-17.2%	0.0	-0.9	14.0%	0.7
COc1ccc(N2c3ccccc3CN(Cc3ccccc3)CC2Cc2cc(OC)c(OC)c(OC)c2)cc1 (configuration not stated)	5.3%	.	?	42.1	1.0	.	.
COc1cc(C2NC(=S)NC(c3ccccc3)=C2C(C)=O)cc(Cl)c1OCC(=O)O (configuration not stated)	5.4%[38.3 µM]	-0.3	0.6%	21.7	0.7	89.1µM*	-0.8
CCN(CC(=O)Nc1ccc(NC(C)=O)cc1)S(=O)(=O)/C=C/c1ccccc1	-1.2%	.	-2.0%	-2.6	0.8	.	.
CCOc1ccccc1CNC(=O)c1ccc(-c2nc(CSc3ccc(C)cc3)c(C)o2)cc1	1.5%	.	?	-12.8	1.9	.	.
N#Cc1cnn(-c2ncnc3sc4c(c23)CCCC4)c1N	1.4%	4.1	-1.6%	-6.7	-0.5	9.1%	5.5
Cc1ccc(C(=O)N2c3ccccc3Sc3ccccc32)cc1	6.4%	.	0.9%	.	-0.5	.	.
S=C(Nc1cccc(Cl)c1Cl)N1CCCC1	-0.5%	-3.6	0.3%	2.7	-0.6	5.4%	.
COc1ccc2cc(-c3nc(Cl)c4c5c(sc4n3)CCCC5)c(=O)oc2c1	3.3%	.	4.0%	10.2	0.2	.	.
Cc1cccc(C(=O)N2CCC(Cc3ccccc3)CC2)c1[N+](=O)[O-]	1.2%	-3.1	0.0%	20.6	1.6	-4.2%	9.1
CC(OC(=O)CNC(=O)C12CC3CC(CC(C3)C1)C2)C(=O)Nc1ccc(S(N)(=O)=O)cc1 (configuration not stated)	1.2%	3.7	.	21.6	-0.5	24.5%	1.1
Cc1ccc(C(=O)NNC(=O)c2cccc(S(=O)(=O)N3CCN(c4ccccc4)CC3)c2)cc1	-2.7%	4.0	-1.3%	5.5	1.2	16.4%	3.6
CCOCCCNC(=O)c1oc2ccc(S(=O)(=O)N3CCOCC3)cc2c1C	2.7%	-14.6	.	40.9	0.0	-1.4%	3.7
CCOc1ccc(N(CC(=O)N2CC=C(c3ccccc3)CC2)S(=O)(=O)c2c(C)noc2C)cc1	2.9%	6.1	-1.8%	-0.3	0.8	7.4%	-1.6
C=CCN1C(=O)c2ccccc2NC1c1ccc(Br)s1 (configuration not stated)	1.4%	-6.2	.	-11.9	2.7	13.3%	-1.0
CC(Oc1ccccc1Cl)c1nnc(N)s1 (configuration not stated)	-0.2%	2.0	0.0%	-10.4	-0.1	1.5%	4.8
COCCn1c(Sc2nc(C)cs2)nc2c1c(=O)[nH]c(=O)n2C	-0.7%	11.4	0.7%	21.2	1.8	1.9%	6.3
